# PTAP-TSG101 blk: qHTS Validation Assay for Inhibitors of HIV-1 Budding by Blocking the Interaction of PTAP/TSG101: Sytravon Library Screen | Tumor susceptibility gene 101 protein (Homo sapiens), Q99816 | 44,000 tested, under 10 active | Fluorescence polarization, FITC-PTAP peptide/Tsg101, 20 min | Potency, µM (doses to about 115 µM), inactives show at the top dose activity change, negative = inhibition, most hits filed as inhibitors; note: potency is the fitted concentration of half-maximal effect; 0% is about no effect
#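 Steps: Tsg101 binding domain (10 uM final) in HEPES pH 7.5/NaCl/Tween 20/EDTA/TCEP; add compound; add FITC-PTAP peptide (50 nM final); incubate 20 min r.t.; read polarization.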
# B2AR arrestin ag: qHTS assay of beta-arrestin-biased ligands of beta2-adrenergic receptor: NCGC Sytravon Library Screen | AID 1347077, 2019 | 44,000 tested, under 10 active | HTLA Tango cells, beta-arrestin recruitment, luciferase luminescence, 18 h | Potency, µM (highest dose often 46.1 µM), without a hit: top-dose activation, usual class: activators;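 note: potency is the fitted concentration of half-maximal effect; 0% = DMSO and full agonism = EC100 isoproterenol or metaproterenol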
# Target sequence (P07550 whole entry, looked up): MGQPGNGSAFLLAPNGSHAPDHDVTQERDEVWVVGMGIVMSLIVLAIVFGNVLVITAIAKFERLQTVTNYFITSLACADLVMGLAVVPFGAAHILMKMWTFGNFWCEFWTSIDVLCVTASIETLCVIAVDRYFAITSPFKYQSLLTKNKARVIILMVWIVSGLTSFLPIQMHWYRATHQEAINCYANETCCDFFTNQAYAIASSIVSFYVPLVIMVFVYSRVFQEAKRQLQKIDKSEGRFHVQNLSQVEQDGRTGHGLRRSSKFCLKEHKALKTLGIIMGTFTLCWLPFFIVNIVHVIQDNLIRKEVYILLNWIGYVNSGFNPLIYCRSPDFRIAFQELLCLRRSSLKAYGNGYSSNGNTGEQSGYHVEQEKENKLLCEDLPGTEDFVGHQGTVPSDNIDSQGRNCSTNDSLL
#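 First, Tango cells carrying beta2-AR and beta-arrestin fusions received compound up to 46 microM. After 18 hr at 37 degrees C, luciferase substrate was added for 15 minutes, then luminescence gave %Activity for curve fitting.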
# p53null 39C tox: qHTS Screen for Compounds that Selectively Target Cancer Cells with p53 Mutations: Cytotoxicity of p53 Null Cells at the Nonpermissive Temperature. H1299 p53-null (neo) cells, 39C, ATPlite viability, 24 h. Potency, µM (series often up to 46.1 µM), without a hit: at the top dose activity, negative = cell killing, most hits filed as cytotoxic. 0.97% of 55,000 active. AID 904, 2007;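 note: potency is the fitted concentration of half-maximal effect; 0% = DMSO only and -100% = full killing by 100 µM tamoxifen; nearly all actives have a fitted effect of over 50% in size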
#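 Luminescent ATP signal reported cell survival after H1299 lines (neo, p53 null; or p53 A138V) received up to 46 uM compound and 24 hr incubation at 39C.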
# GALK inhibitor: qHTS Assay for Inhibitors of Human Galactokinase (GALK): NCGC Sytravon Library Screen; P51570; recombinant GALK, Kinase-Glo ATP luminescence, 1 h; Potency, µM (top dose mostly 57.5 µM), for inactives: top-dose activity, negative = inhibition, usual class: inhibitors; 44,000 tested, under 10 active;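 note: plate controls were full GALK reaction for no effect and reaction lacking GALK for full effect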
# Target sequence (P51570 whole entry, looked up): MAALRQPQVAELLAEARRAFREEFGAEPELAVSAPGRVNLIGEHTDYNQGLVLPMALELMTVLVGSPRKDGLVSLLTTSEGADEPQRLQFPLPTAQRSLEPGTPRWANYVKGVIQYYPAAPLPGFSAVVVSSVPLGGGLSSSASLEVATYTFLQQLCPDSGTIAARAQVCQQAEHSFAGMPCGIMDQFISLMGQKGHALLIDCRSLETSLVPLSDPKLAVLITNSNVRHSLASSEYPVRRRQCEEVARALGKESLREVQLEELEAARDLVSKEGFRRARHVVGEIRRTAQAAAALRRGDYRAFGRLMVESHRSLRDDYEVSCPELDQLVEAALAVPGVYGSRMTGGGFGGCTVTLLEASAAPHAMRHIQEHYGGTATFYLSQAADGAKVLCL
#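 Compounds were pinned into ATP buffer, then GALK-galactose mix was added (final 5 nM enzyme, 35 uM ATP, 100 uM galactose, pH 8.0). After 1 h at room temperature, Kinase-Glo Plus was added and luminescence read.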
# p53null 32C kill: qHTS Screen for Compounds that Selectively Target Cancer Cells with p53 Mutations: Cytotoxicity of p53 Null Cells at the Permissive Temperature; Potency, µM (doses to about 46.1 µM), for the others: at the highest dose activity change, negative = cytotoxicity, usual class: cytotoxic; 0.62% of 55,000 active; H1299-neo p53 null cells, ATP luminescence, 24 h, 32C;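 note: potency is the fitted concentration of half-maximal effect; 0% = DMSO only and -100% = full killing by 100 µM tamoxifen; nearly all actives have a fitted effect of over 55% in size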
#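 Luminescent ATP readout gave cell viability of p53-null H1299-neo cells after a 24 h compound exposure at the permissive 32C. Titrations ran up to 46 uM, and AC50s were fitted with the standard Hill equation.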
# FH mod: Identification of activators of human fumarate hydratase by quantitative high-throughput screening; AID 1347055, 2019; 0.22% of 54,000 active; Fumarate hydratase, mitochondrial (Homo sapiens), P07954; FH coupled MDH/diaphorase resazurin fluorescence, 15 min; Potency, µM (highest dose often 79.9 µM), for inactives: top-dose activity change, negative = inhibition, usual class: inhibitors; note: potency is the fitted concentration of half-maximal effect; % is set by controls: 0 for no effect and ±100 for the full control effect; the screen sought activators but most active calls are inhibition curves; nearly all actives have a fitted effect of over 45% in size
# Starred values were filed as active, the others as inactive; ? = inconclusive; . = no result given; [ ] = remark or other dose. Calls come from the whole dose curve; as a rule, active = well fitted curve in the direction sought with a large enough effect; inconclusive = small, poorly fitted or top-dose-only effect, or another doubt; inactive = no such curve, though single readings can be large; an effect the other way counts as inactive or inconclusive. Not all compounds are listed; rates above refer to the full screens.
1. Cc1scc(CN2CCN(c3ccc(F)cc3)CC2)c1C
2. COCC(C)Nc1ncnc2c1cnn2-c1ccc(C)c(C)c1 (stereo unspecified)
3. N#Cc1c(C(F)(F)F)cc(-c2cccs2)nc1SCC(=O)Nc1ccc(F)cc1
4. COc1ccc(CCNC(=O)CCc2c(C)nc3cc(-c4ccc(Cl)cc4)nn3c2C)c(OC)c1
5. CCOc1ccc(-c2csc(/C(C#N)=C/c3ccc(Br)cc3)n2)cc1
6. CC1=C(c2ccc(C)c(C)c2)S(=O)(=O)N=C1N1CCC(C(=O)NCc2ccccc2C)CC1

Assay by compound | 1 | 2 | 3 | 4 | 5 | 6
PTAP-TSG101 blk | 0% | 0% | 4% | -4% | -4% | 1%
B2AR arrestin ag | 1% | 2% | 11% | 1% | 1% | 1%
p53null 39C tox | -30% | 7% | -26% | -14% | -2% | -22%
GALK inhibitor | 2% | -2% | 4% | 0% | -4% | 1%
p53null 32C kill | -5% | ? | -15% | 9% | 0% | 0%
FH mod | 5% | 15% | -2% | 1% | -2% | 7%

7. CC1=Nc2cc(C(=O)NCCc3ccccc3)ccc2Sc2c(C)ccc(C)c21
8. Cc1ccc(CNC(=O)c2cnc3c(-c4ccc(F)cc4)c(C)nn3c2C)o1
9. O=C(c1ccccc1)n1nc(-c2ccco2)nc1NCc1cccs1
10. CCOC(=O)c1c(C)oc2ncnc(N3CCN(c4cccc(Cl)c4)CC3)c12
11. O=C(Cn1cc(C(=O)c2ccccc2)c(=O)c2cc3c(cc21)OCCO3)Nc1ccc(F)c(F)c1
12. C=C(C(=O)OC)[C@@H]1CC=C2C=CC(=O)[C@H](C)[C@@]2(C)C1

Assay by compound | 7 | 8 | 9 | 10 | 11 | 12
PTAP-TSG101 blk | -3% | -1% | 0% | 3% | -2% | .
B2AR arrestin ag | 0% | -1% | 0% | -2% | -2% | .
p53null 39C tox | ? | -4% | -19% | 4% | -14% | .
GALK inhibitor | 9% | 0% | 8% | 6% | 1% | .
p53null 32C kill | 15% | 6% | -10% | -8% | ? | .
FH mod | -18% | -12% | 1% | -24% | -11% | -1%

13. O=C1c2[nH]nc(-c3ccccc3O)c2C(c2ccc(Cl)cc2)N1CCc1ccccc1 (stereo unspecified)
14. Cc1ccc(CNc2nc(-c3ccco3)nn2C(=O)c2ccccc2[N+](=O)[O-])cc1
15. CCOC(=O)c1cnc(N2CCN(c3ccc(C)cc3C)CC2)c2ccccc12
16. COc1cccc(C2C(C(=O)Nc3cccnc3)=C(C)Nc3nc(SCc4ccccc4)nn32)c1 (stereo unspecified)
17. Cc1cc(C)c(Cn2c(C)c(CNCCCc3ccccc3)c(C(=O)O)c2C)c(C)c1
18. CC(=O)c1ccc(N2CCN(C(=O)C3CCN(S(=O)(=O)c4ccc(Br)s4)CC3)CC2)cc1

Assay by compound | 13 | 14 | 15 | 16 | 17 | 18
PTAP-TSG101 blk | -1% | -6% | -9% | 3% | 0% | 4%
B2AR arrestin ag | ? | -3% | 1% | 1% | -1% | -1%
p53null 39C tox | 25µM* | ? | 6% | 3% | 12% | -4%
GALK inhibitor | 0% | 5% | -1% | 4% | 2% | 5%
p53null 32C kill | 44%[activator] | ? | -20% | 2% | 7% | 14%
FH mod | ? | ? | -14% | -10% | -20% | -24%

19. Cc1cccc(NC(=O)C2CCN(S(=O)(=O)c3ccc(F)cc3)CC2)c1C
20. CCc1nn(CC(=O)NC(C)c2ccccc2)c(=O)c2cc3sccc3n12 (stereo unspecified)
21. COc1ccc(C(=O)CN2C(=O)N(c3cc(C)cc(C)c3)S(=O)(=O)c3ccccc32)cc1
22. COc1ccc(N2C(=O)CS(=O)(=O)C23C(=O)N(Cc2ccc(C)cc2)c2ccccc23)cc1Cl (stereo unspecified)
23. CCOc1ccccc1NS(=O)(=O)c1cnc(N)nc1
24. CCOc1ccccc1CNC(=O)c1cnc2c(-c3ccc(OCC)c(OCC)c3)c(C)nn2c1C

Assay by compound | 19 | 20 | 21 | 22 | 23 | 24
PTAP-TSG101 blk | -1% | -1% | -2% | 3% | 0% | 2%
B2AR arrestin ag | 1% | 1% | -1% | 0% | 1% | -1%
p53null 39C tox | 25% | -11% | 10% | -16% | -23% | 16%
GALK inhibitor | 0% | 4% | -1% | 0% | 0% | -1%
p53null 32C kill | 2% | 2% | 4% | 1% | 4% | -2%
FH mod | 2% | -10% | -8% | -18% | 7% | -12%

25. CCc1ccc(OCC2c3cc(OC)c(OC)cc3CCN2C(=O)COc2ccccc2)cc1 (stereo unspecified)
26. CC(C)(C)c1ccc(OCc2nc3ccccc3n2CCOc2ccccc2)cc1
27. CCOc1ccc(CN2C(=O)c3ccccc3Sc3ccc(C(=O)N4CCN(C)CC4)cc32)cc1
28. O=c1c(NCc2ccccc2Cl)nccn1-c1ccccc1
29. Cc1cnn(C)c1C(=O)Nc1cc(Nc2ccc3c(C=Cc4ccccn4)n[nH]c3c2)ccc1F
30. CCSc1oc(-c2ccco2)nc1S(=O)(=O)c1ccc(Br)cc1

Assay by compound | 25 | 26 | 27 | 28 | 29 | 30
PTAP-TSG101 blk | -1% | -5% | 1% | 0% | . | 1%
B2AR arrestin ag | 0% | 1% | 1% | 0% | . | -2%
p53null 39C tox | 7% | 20% | -11% | 5% | . | 18%
GALK inhibitor | -1% | 3% | 2% | -4% | . | 5%
p53null 32C kill | 11% | 26% | 23% | 0% | . | 20%
FH mod | ? | ? | 0% | 11% | -8%[53.3 µM] | ?

# A few values from the entries so far:
# In PTAP-TSG101 blk, no. 27 has the entry 1%
# In GALK inhibitor, no. 28 has the entry -4%

# From entry 12 as far as 27, as listed above:
12. C=C(C(=O)OC)[C@@H]1CC=C2C=CC(=O)[C@H](C)[C@@]2(C)C1
13. O=C1c2[nH]nc(-c3ccccc3O)c2C(c2ccc(Cl)cc2)N1CCc1ccccc1 (stereo unspecified)
14. Cc1ccc(CNc2nc(-c3ccco3)nn2C(=O)c2ccccc2[N+](=O)[O-])cc1
15. CCOC(=O)c1cnc(N2CCN(c3ccc(C)cc3C)CC2)c2ccccc12
16. COc1cccc(C2C(C(=O)Nc3cccnc3)=C(C)Nc3nc(SCc4ccccc4)nn32)c1 (stereo unspecified)
17. Cc1cc(C)c(Cn2c(C)c(CNCCCc3ccccc3)c(C(=O)O)c2C)c(C)c1
18. CC(=O)c1ccc(N2CCN(C(=O)C3CCN(S(=O)(=O)c4ccc(Br)s4)CC3)CC2)cc1
19. Cc1cccc(NC(=O)C2CCN(S(=O)(=O)c3ccc(F)cc3)CC2)c1C

Assay by compound | 12 | 13 | 14 | 15 | 16 | 17 | 18 | 19
PTAP-TSG101 blk | . | -1% | -6% | -9% | 3% | 0% | 4% | -1%
B2AR arrestin ag | . | ? | -3% | 1% | 1% | -1% | -1% | 1%
p53null 39C tox | . | 25µM* | ? | 6% | 3% | 12% | -4% | 25%
GALK inhibitor | . | 0% | 5% | -1% | 4% | 2% | 5% | 0%
p53null 32C kill | . | 44%[activator] | ? | -20% | 2% | 7% | 14% | 2%
FH mod | -1% | ? | ? | -14% | -10% | -20% | -24% | 2%

20. CCc1nn(CC(=O)NC(C)c2ccccc2)c(=O)c2cc3sccc3n12 (stereo unspecified)
21. COc1ccc(C(=O)CN2C(=O)N(c3cc(C)cc(C)c3)S(=O)(=O)c3ccccc32)cc1
22. COc1ccc(N2C(=O)CS(=O)(=O)C23C(=O)N(Cc2ccc(C)cc2)c2ccccc23)cc1Cl (stereo unspecified)
23. CCOc1ccccc1NS(=O)(=O)c1cnc(N)nc1
24. CCOc1ccccc1CNC(=O)c1cnc2c(-c3ccc(OCC)c(OCC)c3)c(C)nn2c1C
25. CCc1ccc(OCC2c3cc(OC)c(OC)cc3CCN2C(=O)COc2ccccc2)cc1 (stereo unspecified)
26. CC(C)(C)c1ccc(OCc2nc3ccccc3n2CCOc2ccccc2)cc1
27. CCOc1ccc(CN2C(=O)c3ccccc3Sc3ccc(C(=O)N4CCN(C)CC4)cc32)cc1

Assay by compound | 20 | 21 | 22 | 23 | 24 | 25 | 26 | 27
PTAP-TSG101 blk | -1% | -2% | 3% | 0% | 2% | -1% | -5% | 1%
B2AR arrestin ag | 1% | -1% | 0% | 1% | -1% | 0% | 1% | 1%
p53null 39C tox | -11% | 10% | -16% | -23% | 16% | 7% | 20% | -11%
GALK inhibitor | 4% | -1% | 0% | 0% | -1% | -1% | 3% | 2%
p53null 32C kill | 2% | 4% | 1% | 4% | -2% | 11% | 26% | 23%
FH mod | -10% | -8% | -18% | 7% | -12% | ? | ? | 0%

# Going on with the list:
31. CCOC(=O)c1ccc(N2CC3=C(C2=O)C(c2ccc(OC)cc2)NC(=O)N3C)cc1 (stereo unspecified)
32. CCc1nn(CC(=O)NCc2ccccc2Cl)c(=O)c2cccn12
33. c1csc(CNc2ncnc3ccc(-c4ccc5c(c4)OCO5)cc23)c1
34. CCOc1ccc(NC(=O)C(CC(C)C)N2Cc3ccccc3C2=O)cc1 (stereo unspecified)
35. COc1ccc(OC)c(NC(=O)C(C)n2c(=O)c(-c3ccccc3NC(C)=O)nc3ccccc32)c1 (stereo unspecified)
36. O=C(c1cccs1)N1CCCc2cc(NS(=O)(=O)c3cc(F)ccc3F)ccc21

Assay by compound | 31 | 32 | 33 | 34 | 35 | 36
PTAP-TSG101 blk | -2% | 0% | . | 0% | 1% | 0%
B2AR arrestin ag | 0% | -2% | . | -1% | 0% | 0%
p53null 39C tox | 15% | 16µM* | . | -8% | -6% | -4%
GALK inhibitor | -1% | -12% | . | -3% | 2% | -1%
p53null 32C kill | -6% | -20% | . | -4% | 3% | -1%
FH mod | -9% | -14% | 5% | -20% | -5% | -4%

37. CCOC(=O)c1ccc2ncc(C(=O)OCC)c(Nc3ccc(C)c(Br)c3)c2c1
38. COc1ccc(OC)c(NC(=O)CN2C(=O)CCc3cc(S(=O)(=O)N4CCCCC4)ccc32)c1
39. CN1CCN(C(=O)c2ccc3c(c2)N(Cc2c(F)cccc2Cl)C(=O)c2ccccc2S3)CC1
40. CC(=O)Nc1ccccc1-c1nc2ccccc2n(C(C)C(=O)Nc2cc(Cl)ccc2C)c1=O (stereo unspecified)
41. COCCCNC(=O)CSc1nc2nc(C)c(Cc3ccccc3Cl)c(C)n2n1
42. CCc1nn2c(-c3ccccc3OC)ccnc2c1-c1ccc(F)cc1
43. O=C(NC1(C(F)(F)F)C(=O)Nc2c1c(=O)[nH]c(=O)n2-c1ccccc1)c1ccccc1Cl (stereo unspecified)
44. Cc1nn2c(C)c(C(=O)NCc3cccc(Br)c3)cnc2c1-c1ccccc1

Assay by compound | 37 | 38 | 39 | 40 | 41 | 42 | 43 | 44
PTAP-TSG101 blk | 2% | -2% | -2% | -1% | 0% | -2% | -4% | -1%
B2AR arrestin ag | 1% | 1% | -1% | -3% | 0% | -1% | -1% | 0%
p53null 39C tox | 45%[activator] | -15% | 8% | 0% | 20% | . | 19% | 2%
GALK inhibitor | 0% | -4% | 0% | -9% | -2% | -2% | 0% | -2%
p53null 32C kill | 44%[activator] | 2% | 15% | -1% | 10% | . | 6% | -9%
FH mod | -22% | -25% | -27% | -7% | -2% | -23% | 5% | 1%
